RGS16-Gao – modulators of RGS16 binding to Galphao, primary screen, biochemical, human proteins, multiplexed bead flow cytometry; bead-based flow cytometry RGS16-Galphao binding, fluorescence; actives lie on both sides; AID 1441, 2008; 0.38% of 220,000 active; binding response (% of control), % at 10 µM;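 active = below 25% or above 175%, edge rows of some plates excepted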;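 also: Galphao activated by GDP with aluminum fluoride before binding; 100% = wells without compound and 0% = beads without RGS; some results beyond the cut were filed as inactive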
Target sequence (O15492 whole entry, looked up): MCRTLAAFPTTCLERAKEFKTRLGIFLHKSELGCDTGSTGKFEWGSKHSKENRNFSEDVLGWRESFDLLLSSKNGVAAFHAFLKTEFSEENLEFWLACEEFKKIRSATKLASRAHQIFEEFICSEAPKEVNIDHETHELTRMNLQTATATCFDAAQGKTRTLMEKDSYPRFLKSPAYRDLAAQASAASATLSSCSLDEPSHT
Target sequence (P09471 whole entry, looked up): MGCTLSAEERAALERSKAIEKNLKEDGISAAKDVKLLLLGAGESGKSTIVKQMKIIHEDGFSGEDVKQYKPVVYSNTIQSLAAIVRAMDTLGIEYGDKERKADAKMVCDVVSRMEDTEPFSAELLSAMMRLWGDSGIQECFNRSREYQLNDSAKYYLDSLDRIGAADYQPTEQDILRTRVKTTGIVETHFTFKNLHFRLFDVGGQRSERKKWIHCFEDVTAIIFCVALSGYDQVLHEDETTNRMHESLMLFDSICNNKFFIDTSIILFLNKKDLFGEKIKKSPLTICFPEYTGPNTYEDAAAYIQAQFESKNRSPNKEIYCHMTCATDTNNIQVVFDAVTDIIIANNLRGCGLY
HSV augment – enhancers of HSV replication in host cells, fold increase, host cell viability; HSV replication augmentation in cells; maximum fold increase; 0.005% of 220,000 active;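 active = peak rise of 1.5-fold or more in the series; tested in PC3 cells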;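 also: first round at 10 µM; read as green reporter fluorescence; hits show the peak of a series up to 25 µM; 1 = signal of infected wells without compound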
GALR2 agonist – GALR2 receptor agonists, primary screen, cell-based | Galanin receptor type 2 (Homo sapiens), O43603 | GALR2-expressing cells, agonist activation read-out | activation, %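 (tested at 5 µM)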 | 0.48% of 140,000 active;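 active = above mean plus 3 SD of all compounds, about 5% in these data, not always enough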;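 also: 0% = vehicle buffer wells and 100% = reference agonist at full effect; tested in CHO reporter cells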
Target sequence (O43603 whole entry, looked up): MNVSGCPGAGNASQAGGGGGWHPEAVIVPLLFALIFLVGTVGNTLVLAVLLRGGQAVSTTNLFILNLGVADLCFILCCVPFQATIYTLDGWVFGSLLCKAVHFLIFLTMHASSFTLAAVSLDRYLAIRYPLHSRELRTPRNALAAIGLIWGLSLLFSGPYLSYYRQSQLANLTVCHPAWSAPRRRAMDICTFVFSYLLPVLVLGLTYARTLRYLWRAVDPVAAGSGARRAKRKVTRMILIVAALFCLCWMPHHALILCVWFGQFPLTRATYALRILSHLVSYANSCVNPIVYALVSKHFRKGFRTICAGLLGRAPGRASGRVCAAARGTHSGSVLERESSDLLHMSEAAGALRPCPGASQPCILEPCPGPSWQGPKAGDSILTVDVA
PKD1 inh – inhibitors of human PKD1 kinase, biochemical, fluorescence polarization. PKD1 kinase fluorescence polarization assay. inhibition, %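 (about 10 µM by stock and volumes)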. 0.056% of 200,000 active;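 active = inhibition of 50% or more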;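 also: controls were vehicle for no effect and a reference inhibitor for full effect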
INS promoter inh – inhibitors of insulin promoter-driven GFP, primary screen, imaging, TRM-6 cells (human fetal islet line), eGFP reporter, cell count. reporter expression induced with tamoxifen. inhibition, % at 2 µM. 0.9% of 130,000 active;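 active = inhibition above the mean plus 3 SD, with well images judged a real hit on visual review, cut at about 60% in these data, passing the limit was not always enough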
INS promoter inh cell count – also measured in INS promoter inh; calls as there; normalized cell count, %; measured here: cell count, toxicity; reference of the scale not given here;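 cells exposed to compound for 48 h; stained nuclei by imaging scaled within each plate; lower means fewer cells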
HSV augment primary fold – also measured in HSV augment; calls as there; fold increase; compound at 10 µM; measured here: primary screen fold increase 10 uM; tested in PC3 cells;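 GFP signal in the first replicate; 1 = infected wells without compound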
* = called active by the depositor; i = inactive; · = no result given.

SMILES | RGS16-Gao | HSV augment | HSV augment primary fold | GALR2 agonist | PKD1 inh | INS promoter inh | INS promoter inh cell count
O=C(O)c1cc(Cl)c(Cl)cc1C(=O)Nc1cccc2cccnc12 | 98 | i | 0.8 | -1.1 | 0 | 18 | 149
OCCC1CN(Cc2cn[nH]c2C2CCCCC2)CCN1C1CCCC1 (centres undefined) | 103 | i | 0.91 | · | 1 | · | ·
CN(Cc1ccccc1)C(NC(=O)c1ccco1)C(Cl)(Cl)Cl (centres undefined) | 100 | i | 0.99 | · | 2 | · | ·
O=C(COC(=O)c1ccccc1O)Nc1ncc(Cl)cc1Cl | 99 | i | 0.83 | · | -5 | · | ·
C#CCOCCOCCOCCNc1nc(N2CCN(C(=O)Cn3cc(CCCN=C(N)N)nn3)CC2)nc(N2CCN(C(=O)Cn3cc(CCCN=C(N)N)nn3)CC2)n1 | 102 | · | · | -1.4 | -9 | 57 | 97
O=[N+]([O-])c1ccc(C[n+]2cc(-c3ccccc3)n3c2CCCCC3)cc1 | 97 | i | 1 | · | -1 | · | ·
CCOC(=O)C1(Cc2ccccc2)CCCN(Cc2cccc(C(C)=O)c2)C1 (centres undefined) | 101 | i | 0.87 | · | 9 | -110 | 99
COc1ccc(N2CCN(C(CNC(C)=O)c3ccco3)CC2)cc1 (centres undefined) | 108 | i | 0.99 | · | -1 | -33 | 93
CCCCn1c(CNC(=O)C(C)(C)C)nc2ccccc21 | 105 | i | 0.9 | -2.7 | -13 | · | ·
C=CCNC(=O)c1cc2c(C(F)(F)F)nn(C)c2s1 | 105 | i | 0.81 | -0.4 | -1 | -21 | 84
CCCC(=O)N1CCN(c2nc(CC(C)C)c3c(c2C#N)CCC3)CC1 | 101 | · | · | -2.4 | 2 | -64 | 66
O=C(c1ccc2c(c1)OCO2)N(Cc1ccco1)C1(C(=O)NC2CCCCC2)CCCCC1 | 116 | i | 1.1 | -1.5 | 2 | -37 | 118
Cc1ccc(C)c2c1sc(=NC(=O)CN1C(=O)CCC1=O)n2C | 100 | i | 0.88 | -1.8 | -8 | · | ·
CN1CCN(C(=O)c2cc(Cl)ccc2Cl)CC1 | 121 | i | 1 | -2.6 | -5 | -10 | 101
COc1ccc(N2CCN(C(=O)C34CCC(C)(C(=O)C3)C4(C)C)CC2)cc1 (centres undefined) | 106 | i | 1.1 | -1.4 | -3 | 6 | 143
COc1ccc(C)cc1NC1=C(Cl)C(=O)N(C2CCCCC2)C1=O | 106 | i | 0.88 | -2.8 | 6 | 14 | 97
C=CSc1sc(Cl)c(N(C)C)c1[N+](=O)[O-] | 97 | i | 0.87 | · | 1 | -488 | 119
CNC(=S)SCCOc1ccc(C)cc1 | 117 | i | 1 | -1.3 | 8 | · | ·
COc1ccc2c(c1OC)C(=O)OC2Nc1ccc(S(=O)(=O)N=C(N)N)cc1 (centres undefined) | 92 | i | 1 | · | · | · | ·
CN1CCC(N(C)C(=O)NC2CCCCC2)CC1 | 106 | i | 1.1 | · | 3 | -32 | 142
Cc1cccc(CSc2nc(N)c(C#N)c(-c3cccs3)c2C#N)c1 | 114 | i | 0.89 | 0.1 | -3 | 33 | 134
COc1ccccc1N1CCN(S(=O)(=O)c2ccc3nc(-c4ccccc4)[nH]c3c2)CC1 | 111 | i | 0.8 | -1.6 | -2 | 7 | 86
O=c1[nH]n(-c2ccccc2)c(=O)c(Cl)c1Cl | 103 | i | 1 | -5.2 | -17 | -64 | 124
Cc1n[nH]c(C)c1S(=O)(=O)N1CCCC(C(=O)N2CCc3ccccc32)C1 (centres undefined) | 99 | i | 0.81 | 1.1 | -1 | · | ·
COc1ccc(-c2c(C)nn(-c3ccccc3)c2N)cc1 | 99 | i | 0.95 | -0.2 | -1 | 0 | 130
O=C(Nc1ncccc1Cl)C1COc2ccccc2O1 (centres undefined) | 45 | i | 0.7 | -3.0 | -7 | · | ·
NS(=O)(=O)c1ccc(CCNC(=O)CSc2nc3ccsc3c(=O)n2C2CC2)cc1 | 96 | i | 0.94 | -3.3 | -2 | 48 | 74
CC1(C)CC(NC(=O)c2ccncc2)CC(C)(C)N1O | 97 | i | 0.85 | · | 2 | · | ·
C#CCOCCOCCOCCNc1nc(N2CCN(C(=O)[C@H]([C@@H](C)CC)n3cc([C@@H](N)Cc4ccc(O)cc4)nn3)CC2)nc(N2CCN(C(=O)[C@H](CCCCN)n3cc([C@@H](N)CO)nn3)CC2)n1 | 107 | · | · | · | 2 | · | ·
O=C(N=Nc1c(O)[nH]c2ccc([N+](=O)[O-])cc12)c1ccccc1[N+](=O)[O-] | 91 | i | 0.87 | · | · | · | ·
CCC(C)n1c(OC)nc2c1c(=O)n(C)c(=O)n2C (centres undefined) | 108 | i | 0.97 | · | -5 | -32 | 154
CCN(CC)C(=O)c1[nH]cnc1C(=O)N[C@@H](CC(C)C)C(=O)OCc1ccccc1 | 101 | i | 1 | · | -3 | · | ·
CC(/C=N/n1c(-c2cc(C)[nH]n2)n[nH]c1=S)=C\c1ccco1 | 100 | i | 1.1 | · | · | · | ·
COC(=O)c1ccccc1NC(=O)C1CCCN(c2nnc(-n3cccc3)s2)C1 (centres undefined) | 99 | i | 0.98 | -0.9 | 7 | · | ·
Cc1nn(C(=O)c2cccnc2)c(C)c1Sc1ccccc1 | 101 | i | 0.87 | -1.7 | 5 | 13 | 148
O=C(c1cccs1)c1coc2ccc(O)c(CN(CCO)CCO)c12 | 82 | i | 0.69 | -2.1 | -7 | 12 | 109
O=C(O)C1CCN(C(=O)CSc2nc3ccccc3s2)CC1 | 99 | i | 0.94 | · | -8 | 44 | 88
CC(=O)Nc1ccc(S(=O)(=O)Nc2ccc3c(c2)OCCO3)cc1Cl | 102 | i | 1.1 | · | · | · | ·
Cc1ccc(NC(=O)c2cnn(-c3ccccc3)c2NC(=O)c2ccco2)cc1 | 97 | i | 0.97 | -1.9 | -18 | -18 | 117
COc1ccccc1Nc1ncc(C(=O)Nc2ccc(OC)c(OC)c2)c2ccccc12 | 45 | i | 0.83 | -0.7 | 6 | 24 | 97

Twelve structures already listed, ordered by count of non-hydrogen atoms, lowest first:
SMILES | RGS16-Gao | HSV augment | HSV augment primary fold | GALR2 agonist | PKD1 inh | INS promoter inh | INS promoter inh cell count
O=c1[nH]n(-c2ccccc2)c(=O)c(Cl)c1Cl | 103 | i | 1 | -5.2 | -17 | -64 | 124
CCC(C)n1c(OC)nc2c1c(=O)n(C)c(=O)n2C (centres undefined) | 108 | i | 0.97 | · | -5 | -32 | 154
CC1(C)CC(NC(=O)c2ccncc2)CC(C)(C)N1O | 97 | i | 0.85 | · | 2 | · | ·
COc1ccc(-c2c(C)nn(-c3ccccc3)c2N)cc1 | 99 | i | 0.95 | -0.2 | -1 | 0 | 130
Cc1nn(C(=O)c2cccnc2)c(C)c1Sc1ccccc1 | 101 | i | 0.87 | -1.7 | 5 | 13 | 148
O=C(c1cccs1)c1coc2ccc(O)c(CN(CCO)CCO)c12 | 82 | i | 0.69 | -2.1 | -7 | 12 | 109
O=C(N=Nc1c(O)[nH]c2ccc([N+](=O)[O-])cc12)c1ccccc1[N+](=O)[O-] | 91 | i | 0.87 | · | · | · | ·
Cc1n[nH]c(C)c1S(=O)(=O)N1CCCC(C(=O)N2CCc3ccccc32)C1 (centres undefined) | 99 | i | 0.81 | 1.1 | -1 | · | ·
Cc1ccc(NC(=O)c2cnn(-c3ccccc3)c2NC(=O)c2ccco2)cc1 | 97 | i | 0.97 | -1.9 | -18 | -18 | 117
NS(=O)(=O)c1ccc(CCNC(=O)CSc2nc3ccsc3c(=O)n2C2CC2)cc1 | 96 | i | 0.94 | -3.3 | -2 | 48 | 74
COc1ccccc1N1CCN(S(=O)(=O)c2ccc3nc(-c4ccccc4)[nH]c3c2)CC1 | 111 | i | 0.8 | -1.6 | -2 | 7 | 86
C#CCOCCOCCOCCNc1nc(N2CCN(C(=O)[C@H]([C@@H](C)CC)n3cc([C@@H](N)Cc4ccc(O)cc4)nn3)CC2)nc(N2CCN(C(=O)[C@H](CCCCN)n3cc([C@@H](N)CO)nn3)CC2)n1 | 107 | · | · | · | 2 | · | ·

Other results follow.
SMILES | RGS16-Gao | HSV augment | HSV augment primary fold | GALR2 agonist | PKD1 inh | INS promoter inh | INS promoter inh cell count
COc1cc(C(=O)c2c(C)c(CCC#N)n3ccccc23)cc(OC)c1OC | 103 | i | 0.7 | · | -4 | · | ·
COc1ccc2nc(SCc3cccc(C)c3)nc(C)c2c1 | 110 | i | 1.1 | 0.0 | -2 | · | ·
CCOc1ccc(N2CC(C(=O)Oc3ccccc3)CC2=O)cc1 (centres undefined) | 102 | i | 0.95 | 0.2 | -14 | · | ·
CCOC(=O)c1cnc(SC)nc1Oc1cccc(NS(=O)(=O)c2ccc(C)cc2)c1 | 104 | i | 0.91 | -0.9 | -9 | -20 | 64
CS(=O)(=O)N(Cc1ccccc1)c1ccc(C(=O)N2CCc3ccccc3C2)cc1 | 88 | i | 0.88 | -1.1 | -8 | -16 | 157
O=C(Nc1nc2ccc(S(=O)(=O)N3CCCCC3)cc2s1)c1cccnc1 | 111 | i | 0.9 | 0.2 | 6 | -34 | 65
Cn1cc(CN2CCN(CCc3ccccc3)C(CCO)C2)cn1 (centres undefined) | 96 | i | 0.89 | · | -7 | · | ·
O=C(CSc1nnc(CNc2ccc(F)cc2)n1-c1ccccc1)N1CCOCC1 | 109 | i | 1 | -0.5 | -3 | -20 | 113
CCOc1ncccc1C(=O)N1CCCSC1=Nc1ccccc1OC | 98 | i | 0.97 | · | 0 | · | ·
CCOC(=O)c1c(NC(=O)COC(=O)Cn2c(C)nc3ccccc32)sc2c1CCCC2 | 148 | i | 0.98 | -1.2 | -15 | 28 | 75
CCOC(=O)C1(CCOC)CCN(Cc2ccc(C3CCCCO3)s2)CC1 (centres undefined) | 99 | i | 0.93 | · | 0 | · | ·
CCOC(=O)c1c(N)sc(C(=O)N(C)C)c1C | 92 | i | 0.94 | -2.8 | -5 | 23 | 117
O=C(C1CCCN1S(=O)(=O)c1ccc(Cl)cc1)N1CCOCC1 (centres undefined) | 102 | i | 0.99 | -1.3 | 3 | 63 | 185
COc1cccc(CN2CCSCC2)c1 | 99 | i | 0.91 | -0.8 | 2 | -9 | 142
Cc1cccn2c(CN3CCSCC3)c(C(=O)N3CCOCC3)nc12 | 101 | i | 1.1 | · | -8 | · | ·
CCCn1c(N)c(CC)c(=O)[nH]c1=O | 104 | i | 0.96 | · | -6 | · | ·
N=C(N)SCP(=O)(c1ccccc1)c1ccccc1 | 91 | i | 0.89 | · | · | · | ·
Cc1nn(-c2ccccc2)c2nc(=O)n(-c3ccccc3)cc12 | 92 | i | 0.88 | 0.3 | -3 | · | ·
C=CCn1c(C(C)NC(=O)c2cccc(C)c2)n[nH]c1=S (centres undefined) | 87 | i | 0.97 | · | -7 | -45 | 73
C=CCOc1ccc(CNC(C)(C)CO)cc1OC | 101 | i | 0.9 | -3.5 | -11 | 2 | 120
CCOc1ccc(C(=O)c2cc3ccc(O)cc3oc2=O)cc1 | 96 | i | 1 | · | 0 | 0 | 116
CC(C)NC(=O)/C(=C/c1cn(-c2ccccc2)nc1-c1cccc([N+](=O)[O-])c1)NC(=O)c1ccccc1 | 110 | i | 0.98 | -1.8 | -6 | 24 | 107
Cc1cccc(NC(=O)Cc2cccs2)n1 | 91 | i | 0.99 | -2.1 | -3 | 6 | 130
CC(C)CC(NS(=O)(=O)c1ccc2[nH]c(=O)c(=O)[nH]c2c1)C(=O)O (centres undefined) | 100 | i | 0.93 | · | 3 | 7 | 128
O=C1NCCCN1Cc1ccc(F)cc1 | 101 | i | 0.88 | -0.5 | 1 | · | ·
COC(CNC(=O)c1ccc(N2CCC3(CC2)OCCO3)c([N+](=O)[O-])c1)OC | 17 | i | 1.1 | -0.2 | -9 | 44 | 60
COc1ccc(C(=O)NCc2ccccc2OC)c(OC)c1 | 97 | i | 0.98 | -0.3 | -6 | · | ·
CC(C)NCC(O)Cn1c2c(c3ccccc31)CCc1c-2cnn1-c1ccccc1 (centres undefined) | 98 | i | 0.56 | 0.1 | 1 | 57 | 86

Screening results (PubChem)

Compounds were not picked by outcome; any-hit rate near 1.3%.
